# NPYLR7 ag: activates Aedes aegypti NPYLR7 receptor; activation, % at 10 µM; hit rate 0.15% among 270,000; AID 1259423; HEK293T NPYLR7/Galpha15, GCaMP6s calcium fluorescence; in the data active = activation above about 40%;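 also: 0% = vehicle and 100% = reference agonist at the receptor; some compounds past the cut are filed as inactive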
# NPYLR7 ag max-min: also measured in NPYLR7 ag; calls as there; activation, %; measured here: Max-Min RFU normalised activation; some inactives read as strong as hits;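 span of the calcium signal over five minutes; 0% = vehicle and 100% = native peptide agonist; compound fluorescence can raise it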
# Starred values were filed as active, the others as inactive; & = joins results of further samples. Some of the compounds tested. The share of hits here may be higher or lower than overall.
SMILES,NPYLR7 ag,NPYLR7 ag max-min
O=C(CSc1nc(=O)n(CCCO)c2c1CCC2)Nc1ccc2c(c1)OCCO2,-7,-14
Cc1cc(C)c(Nc2nnc(SCCC(N)=O)s2)c(Cl)c1,10,5
Cc1cc(C)n(Cc2cc(C(=O)N3CCCC3c3nccs3)n[nH]2)n1 (stereo unspecified),0,-4
Cc1ccc(OCCNc2cc(N3CCCS3(=O)=O)ccc2F)cc1,-5,194
COCCCNc1ccn2nccc2n1,2,0
COc1cccc(NC(=O)CN(C)C(C)C(=O)Nc2ccc(Br)cc2)c1 (stereo unspecified),0,-1
CC(=O)Cn1c(CN2CC(C)CC(C)C2)nc2c1c(=O)n(C)c(=O)n2C (stereo unspecified),-2,-4
CCCNc1nc(-c2ccc3c(c2)C(C)C(=O)N3)cs1 (stereo unspecified),11,11
O=C(c1cc(Cl)cc(Cl)c1)N1CCN(C(=O)c2cccs2)CC1,9,2
CC(=O)Nc1ccc(SCc2ccc(C(=O)N3C4CCC3CC(Oc3cccc(C(F)(F)F)c3)C4)cc2)cc1 (stereo unspecified),10,-3
CC(CN1CCc2ccccc2C1)NC(=O)c1cccc2ccnn12 (stereo unspecified),4,2
CCc1nc(C)c(C(=O)Nc2cccc(NC(=O)CCc3ccccc3)c2)o1,10,3
CCOC(=O)c1cnc2cc(C(F)(F)F)ccc2c1Nc1ccc(O)c(C(=O)O)c1,16,12
CCCc1c(C)nn(-c2ccc(C(=O)Nc3cccc(Oc4ccccc4)c3)cc2)c1C,-6,-12
CCc1c(C)c(C(=O)NCc2ccc3c(c2)OCO3)n(Cc2ccccc2C)c1C,0,10
CCOc1ccc(C(=O)NNC(=O)C2CN(C(C)=O)c3ccccc3O2)cc1 (stereo unspecified),6,1
CCS(=O)(=O)N(CC(=O)Nc1ccccc1)c1cc(Br)ccc1OC,6,4
Cn1cc(NC(=O)c2cccc(CN3CCCCC3c3cccnc3)c2)nn1 (stereo unspecified),-1,-6
C/C=C/C=C/C(=O)N1CCCC1c1nnc2c(C(F)(F)F)cccn12 (stereo unspecified),14,10
CC1CCCN(C(C(N)=O)c2ccccc2)C1 (stereo unspecified),5,3
C(=NNc1nc2ccccc2[nH]1)C1CCCCC1,-1,-6
COc1ccccc1CCNC(=O)CN1CN(c2ccccc2)C2(CCN(C(=O)Nc3cccc(Cl)c3)CC2)C1=O,0,-7
CCCOCC(=O)NCc1nccn1C(F)F,4,3
CC1(C)CN=C(SCc2cc(F)cc3c2OCOC3)NC1,12,3
CN(Cc1n[nH]c(=O)n1CCc1ccccc1F)S(C)(=O)=O,0,-1
C=CCN(Cc1cc(Br)ccc1F)C(=O)C1CCC(=O)NC1 (stereo unspecified),-6,-6
CCN(CCCNC(=O)CCn1c(=S)[nH]c2cc3c(cc2c1=O)OCO3)c1ccccc1,-4,3
C=CCn1c(SCC(=O)Nc2c(F)cccc2F)nc2scc(-c3ccco3)c2c1=O,-4,-9
CCN1CCCC1CNC(=O)NC1CC(=O)N(c2ccc(C)c(C)c2)C1 (stereo unspecified),13,10
COc1ccc(CCNC(=O)c2ccccc2N2CCC(NC(=O)c3cccs3)CC2)cc1OC,-5,-4

# 5 structures out of the list, sorted by number of heavy atoms, high to low.
SMILES,NPYLR7 ag,NPYLR7 ag max-min
CCCc1c(C)nn(-c2ccc(C(=O)Nc3cccc(Oc4ccccc4)c3)cc2)c1C,-6,-12
C=CCn1c(SCC(=O)Nc2c(F)cccc2F)nc2scc(-c3ccco3)c2c1=O,-4,-9
COc1cccc(NC(=O)CN(C)C(C)C(=O)Nc2ccc(Br)cc2)c1 (stereo unspecified),0,-1
Cc1cc(C)n(Cc2cc(C(=O)N3CCCC3c3nccs3)n[nH]2)n1 (stereo unspecified),0,-4
CCCNc1nc(-c2ccc3c(c2)C(C)C(=O)N3)cs1 (stereo unspecified),11,11

# The results go on.
SMILES,NPYLR7 ag,NPYLR7 ag max-min
CN1CCC2(CCc3cc(-c4ccc(C(=O)NN(C)c5ccccc5)cc4)ccc3O2)CC1,15,7
Cc1ncc(CNC(=O)N2CCN(C3CC4CCC3C4)CC2)s1 (stereo unspecified),1,48
CCOC(=O)N1CCN(C(=O)c2cc(COc3ccc(F)cc3F)on2)CC1,15,6
O=C(Nc1ncnc2c1CCC2)c1nc2ccccc2s1,9,7
O=C(c1cc(Cl)cc(Cl)c1)N1CCSC1c1cccc(Cl)c1 (stereo unspecified),8,18
COc1ccc(CCN=C(NC(=O)c2cccs2)OC(C)C)cc1OC,-14,-9
CCc1ccc(-n2c(C(CC)N(CCc3ccc(OC)c(OC)c3)C(=O)c3ccc(Cl)cc3)nc3ccccc3c2=O)cc1 (stereo unspecified),29,28
COc1cc(C#N)ccc1Oc1ccc(NC(=O)Cn2cccn2)cc1,8,7
COc1cc(C(=O)NS(=O)(=O)c2cccnc2)ccc1OC1CCCC1,13,8
Cc1nc2c(=O)n(Cc3ccc(Cl)cc3Cl)nc(-c3ccco3)c2s1,8,7
Nc1ccnc(C(=O)N2CCC3(CCNCC3)CC2)c1,11,5
CCCC(=O)N1CC2(C(C)C)CN(C(=O)CCC)CC(C(C)C)(C1)C2=O,3,2
Cn1c(=O)n(C)c2cc(CNc3cc(C(=O)O)ccc3Cl)ccc21,-4,-4
COc1ccc(OC)c(C2SCC(=O)N2CC(=O)N2CCOCC2)c1 (stereo unspecified),6,18
COc1cccc(NC(=O)Cn2c(-c3nnc(C(C)C)o3)cc3ccccc32)c1,0,1
O=C(CN1CSCC1=O)Nc1nnc(C2CC2)s1,-1,11
O=C(O)/C=C/c1ccc(O)c(O)c1,-11&1&8,-14&0&-4
CCc1nc(C)c(C(=O)N2CC(c3ccncc3)C2)o1,17,21
Cc1cnc(CNC2(C(=O)NCC3CC3)CCCC2)cn1,7,4
CCCN(CC(=O)N(CCc1c[nH]c2ccccc12)Cc1ccc(C(C)(C)C)cc1)C(=O)Nc1ccccc1,-3,3

# As entered above.
# Value of CCCC(=O)N1CC2(C(C)C)CN(C(=O)CCC)CC(C(C)C)(C1)C2=O in NPYLR7 ag: 3
# Value of COc1ccc(OC)c(C2SCC(=O)N2CC(=O)N2CCOCC2)c1 (stereo unspecified) in NPYLR7 ag max-min: 18
# Value of O=C(CN1CSCC1=O)Nc1nnc(C2CC2)s1 in NPYLR7 ag max-min: 11
# Value of Cc1cnc(CNC2(C(=O)NCC3CC3)CCCC2)cn1 in NPYLR7 ag max-min: 4
# Value of CCc1nc(C)c(C(=O)N2CC(c3ccncc3)C2)o1 in NPYLR7 ag: 17

# (cont.)
SMILES,NPYLR7 ag,NPYLR7 ag max-min
COc1cc2cc(C(=O)N3CCCC3)[nH]c2c(OC)c1OC,-22,-24
O=C(NC(C(=O)Nc1ccccc1)C1CCN(C(=O)c2ccco2)CC1)c1ccc(F)cc1 (stereo unspecified),17,17
CCCOc1c(Cl)cc(C(=O)Nc2ncc(C)s2)cc1OCC,6,2
O=C1OCCN1c1nnc(Sc2ccc(C(F)(F)F)cn2)s1,10,7
Cc1cn2c3c(=O)n(Cc4ccccc4F)c(=O)n(C)c3nc2n1CCO,3,3
C=CCNC(=O)CSc1nnc(-c2ccc(OC)cc2)n1C(C)C,6,0
CCOc1ccc(N2C(=O)CSC2c2ccccc2Br)cc1 (stereo unspecified),-5,-10
ON=Cc1cccn1-c1ccccc1,-13,-19
CCCCCCCCc1ccc(C(=O)N2CCN(Cc3cc(=O)c(OCc4cccc(F)c4)co3)CC2)cc1,24,13
CC1CCCCN1CCCNC(=O)C(C1CCCC1)N1CCN(C(=O)C2CC2)CC1 (stereo unspecified),-4,1
CCN(Cc1nc2cc(Cl)ccc2c(=O)[nH]1)C(=O)CCNC(=O)c1ccccc1,15,5
CCC(C(=O)Nc1ccccc1F)n1nnc(C(=O)OC)c1C(=O)OC (stereo unspecified),-8,-17
O=C(NCCC1=CCCCC1)C1CC12CCN(Cc1ccc3ccccc3c1)CC2 (stereo unspecified),7,7
CC1(C)C2CCC1(CS(=O)(=O)NCc1nnc(SCc3ccccc3)n1-c1cc(Cl)ccc1Cl)C(=O)C2 (stereo unspecified),-16,-15
Nc1cccc(Oc2ccc3c(c2)C(=O)N(c2ccc(O)cc2)C3=O)c1,-5,-6
COc1ccc(-c2cc(NC=O)c3ncc(-c4ccc(F)c(Cl)c4)n3c2)cc1,-5,-9
CC(=O)Oc1ccc(N(C(C)=O)S(=O)(=O)c2ccccc2)c2ccccc12,0,6
O=C(COc1ccc(Cl)cc1)Nc1cccc(C2SCC(=O)N2c2ccc(F)cc2F)c1 (stereo unspecified),1,12
COCCCN(Cc1c(-c2ccccc2)noc1N1CCC(C)CC1)C(=O)c1ccccc1F,-8,-2
COc1ccc(-c2nnc(-c3cc(OC)c(OC)c(OC)c3)o2)cc1OC,9&2,11&9
O=C(CCS(=O)(=O)c1ccccc1)N(CCCN1CCOCC1)c1nc2ccccc2s1,-1,-5
O=C(CCc1cccc(F)c1)NC1CCCc2c1cnn2-c1cc(F)cc(F)c1 (stereo unspecified),3,2
COc1cc(Br)c(Cn2cnnc2C#N)cc1OC,-1,22
Cc1ccccc1CN1C(=O)C2(NCC(C)(C)S2)c2cc(Cl)ccc21 (stereo unspecified),7,7
COCCN(Cc1ccsc1)Cc1ccc(C(O)(c2cccs2)c2cccs2)o1,20,18
CC(C)Cn1ccnc1NC(=O)c1ccc(S(=O)(=O)NC(C)(C)C)o1,7,2
CNC(=O)C(=O)Nc1cc(Br)ccc1Cl,3,1
COc1ccc(Cc2nc3ccc(S(=O)(=O)N4CCOCC4)cc3[nH]2)cc1,3,0
COCCn1c(C)cn2c3c(=O)n(Cc4ccccc4Cl)c(=O)n(C)c3nc12,2,-2
Cn1cnc2cnc(Nc3ccccc3Cl)cc21,-5,3
S=c1[nH]nc(C2CCCCC2)n1-c1ccc(Cl)c(Cl)c1,-5,0
C#CCN(C)C(=O)c1ccc(-n2nc(C(=O)OCC)c3c2-c2ccccc2C3)cc1,-3,-5
O=S(=O)(NC1CCOc2ccccc21)c1ccc2c(c1)OCCCO2 (stereo unspecified),6,6
Cc1c(NC(=O)Nc2cnn(C)c2)cccc1OC(F)F,10,4
CC(NC(C(=O)N(C)C)c1ccccc1)c1ccc(Cl)cc1 (stereo unspecified),2,1
O=C(NC1C[C@H]1c1ccccc1)N1CCN(C(c2ccc(F)cc2)c2ccc(F)cc2)CC1 (stereo partly specified),26,22
CN(CCOc1ccccc1)C(=O)c1cc2ccccc2oc1=O,21,14
Cc1ccccc1-n1ncc2c(NC(C)(C)CO)ncnc21,14,8
Cc1ccc(CNC2CCCCc3ccccc32)s1 (stereo unspecified),-2,-4
CC(C)CN(C(=O)c1cc(C2CC2)[nH]n1)C1CCN(C)CC1,2,2
Cc1ccc(-c2ccc(=O)n(CCCNC(=O)c3ccc(F)c(F)c3)n2)cc1,-1,-3
CCN(CCNS(=O)(=O)N1CCOCC1)c1ccccc1C,9,4
O=C1/C(=C/c2ccc(-c3cc(Cl)ccc3Cl)o2)C=C(c2ccccc2)N1c1cccc(Br)c1,0,6
Cc1cccc(NC(=O)CNC(=O)c2ccsc2)c1C,-1,-1
Cc1nonc1CN(C)C(=O)c1cc(COc2ccc(F)cc2Cl)on1,2,9
C=CCn1c(CCCOc2ccc(Cl)cc2Cl)n[nH]c1=S,3,0
O=C(CCC(=O)N1CCc2ccccc21)NC1CCOC1=O (stereo unspecified),19,11
O=C1NC(=O)C(=Cc2ccc(C(=O)O)cc2)S1,-3,-5
CCC(C)N(Cc1cccc(OS(=O)(=O)c2cccc(C(F)(F)F)c2)c1)C(=O)c1ccc([N+](=O)[O-])cc1 (stereo unspecified),-4,5
O=C(NCc1ccccn1)c1cc2n(n1)CCN(Cc1c(F)cccc1Cl)C2=O,-3,-3

# Later entries.
SMILES,NPYLR7 ag,NPYLR7 ag max-min
CCCCCCCC(=O)N(CC(=O)Nc1cc(-c2ccccc2)nn1-c1ccc(F)cc1)Cc1ccccc1,-2,6
CCOC(=O)c1[nH]c2ccccc2c1NC(=O)CCC1CCCC1,0,4
Cc1nc(-c2cccnc2)nc(N2CCNC(=O)CC2)c1C,0,2
Cc1cccc(NC(C)C(=O)Nc2ccc3c(c2)OCO3)c1C (stereo unspecified),1,1
CC(C)N(CC(=O)N(Cc1cccn1Cc1ccc(F)cc1)C1CCCCC1)C(=O)c1ccc(F)cc1,-3,0
Cc1ccc(C)c(Cn2c(N3CCN(CC(C)C)CC3)nc3c2c(=O)[nH]c(=O)n3C)c1,23,32
CN(CC(=O)N(C)C1CCC(c2ccccc2)CC1)c1cnccn1 (stereo unspecified),4,7
Cc1cc(C)cc(NC(=O)CSc2c[nH]c3ccccc23)c1,1,-2
CC(C)Cc1cc(C(=O)N2CCn3cncc3C2)on1,-2,-3
C#CCn1c(=NC(=O)CN2C(=O)CCC2=O)sc2cc(Cl)ccc21,3,3
Cc1ccc2nc(C)c(C(=O)NCCSc3ncn[nH]3)cc2c1,-6,-8
Cc1ccsc1CCCC(=O)O,13,8
COc1cc(C(C)NC(=O)N(C)C(C2CC2)C2CC2)cc(OC)c1OC (stereo unspecified),1,1
CN(CC1CCN(c2ccccc2)C1)C(=O)c1cn2c(n1)CNCC2 (stereo unspecified),-5,-9
CCCCc1nc(Cl)c2c3c(sc2n1)CCCC3,-5,-4
O=c1c2c(nc(SCc3ccc([N+](=O)[O-])cc3)n1-c1ccccc1)CCS2,-2,-3
Clc1c(-c2nnco2)sc2ccccc12,-2,-1
COc1cccc(OC)c1-c1cnnc(N2CCC(C(=O)c3ccccc3)CC2)n1,8,7
CCOC(=O)c1c(NC(=O)c2ccc(Cl)cc2)sc(C(=O)Nc2ccccc2C)c1C,-4,-9
O=C(CN1CCCCCC1=O)N1CCN(Cc2ccc(Cl)s2)CC1,5,0

# Screening data deposited in PubChem BioAssay by Fisher Drug Discovery Resource Center.
